S aureus helic = blocks Staphylococcus aureus DNA helicase; AID 485395; 120,000 tested, 0.05% active; purified S. aureus helicase, fluorescence unwinding assay; about half of the hits fall short of the stated cut; inhibition, %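 (tested at about 80 µM)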;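 active = both duplicates at 50% or more, or one of them with a favoured structure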;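 note: 0% = mean of negative control wells and 100% = mean of positive control wells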
MgrA DNA FP = alters Staphylococcus aureus MgrA binding to DNA | fluorescence polarization | inhibition, %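 (about 10 µg/mL by stock and volumes)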 | 84,000 tested, 0.13% active;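 active = above 50% in either of two replicates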;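 note: 0% = protein plus DNA without compound and 100% = DNA alone without protein; higher means less MgrA bound to DNA so lower polarization; one replicate is shown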
Starred values were filed as active, the others as inactive; / = not tested or not shown.

MgrA DNA FP	S aureus helic	SMILES
/	16	O=c1c2ccccc2n2c(=S)[nH]nc2n1Cc1ccccc1
/	11	Cc1c(Cl)cccc1-c1ccc(C(=O)Nc2ccccn2)o1
0.0	12	Cc1ccc(C(=O)OCc2ccccc2)cc1NC(=O)c1ccco1
/	12	O=C(OCCN1CCCCC1)c1ccccc1Cl
/	-20	Brc1ccc2c(c1)CNc1cccnc1O2
/	-24	Cc1ccnc2nc(C(=O)Nc3ccccc3C(C)(C)C)nn12
/	10	CN(C)CCSc1nc2ccccc2n1CCc1ccccc1
0.2	7	O=C(NCc1ccco1)c1ccc2c(=O)n(C3CCCCC3)c(SCc3cccc(F)c3)nc2c1
0.5	-10	Cc1cc(=O)[nH]c(SCc2cn3c(C)cc(C)nc3n2)n1
3.2	-14	CC(O)(CC#N)c1ccccc1 (stereo not drawn)
/	8	Cc1ccc2nc(COC(=O)Cn3[nH]c(=O)c4ccccc4c3=O)cc(=O)n2c1
/	11	CCOC(=O)c1oc2ccccc2c1NC(=O)COC(=O)C12CCC(=O)N1c1ccccc1S2 (stereo not drawn)
/	-6	CC(C)=N/N=C(\N)SCc1ccccc1
1.6	/	CCN(CC)C(=S)Oc1c(Br)cc(Br)cc1Br
/	-16	CC(C)C(NC(=O)CC12CC3CC(CC(C3)C1)C2)C(=O)O (stereo not drawn)
/	9	Nn1c(Cc2ccccc2)n[nH]c1=S
/	-29	CC1(C)Oc2ccc(/C=C/C(=O)N3CCCCC3)c(O)c2C(N2CCCCC2)C1O (stereo not drawn)
3.0	16	COc1ccc(C2c3sc(=S)[nH]c3SC3C4CCC(C4)C23)cc1 (stereo not drawn)
-0.2	9	C/C(=N\O)c1ccc(O)cc1O
/	-9	CCNC(=O)N(Cc1ccc(Cl)cc1)Cc1cccnc1
/	9	CCc1ccc(NC(=O)c2cc(=O)n3c(nc4ccccc43)s2)cc1
/	19	CC(NCc1cccc(S(=O)(=O)N(C)C)c1)c1ccc(F)cc1 (stereo not drawn)
-0.1	/	O=C1CCCN1c1ncccn1
0.3	/	COc1cccc(NC(=O)c2ccc(OC)c(OC)c2)c1
2.2	16	O=S(=O)(NC1CCCCC1NC1CCCCC1)c1ccccc1 (stereo not drawn)

Grouped by structure: the compounds so far with a Cl atom.
MgrA DNA FP	S aureus helic	SMILES
/	11	Cc1c(Cl)cccc1-c1ccc(C(=O)Nc2ccccn2)o1
/	12	O=C(OCCN1CCCCC1)c1ccccc1Cl
/	-9	CCNC(=O)N(Cc1ccc(Cl)cc1)Cc1cccnc1

Next entries follow:
MgrA DNA FP	S aureus helic	SMILES
/	1	O=c1ccc2c(c1)oc1c(-c3ccccc3)c3ccccc3[nH]c12
0.3	10	C=CCNC(=O)c1c(N)n(-c2ccccc2)c2nc3ccccc3nc12
/	-53	CC(/C=C1\SC(=S)N(CCCC(=O)Nc2cccnc2)C1=O)=C\c1ccccc1
3.8	8	Cc1ccc(C(=O)CSc2nc3ccccc3c(=O)n2N)o1
1.6	8	O=C(Nc1cccc(Cl)c1)Nc1nncs1
-1.5	/	Cc1noc(C)c1C(=O)NCc1cc(F)cc2c1OCOC2
0.4	4	CCn1c(O)c(/C=C/c2nc3ccccc3n2CC)sc1=S
0.9	-6	COc1ccc(/C=C2/CC(C(C)(C)C)C/C(=C\c3ccc(OC)cc3OC)C2=O)c(OC)c1 (stereo not drawn)
0.1	-15	CCCC(=O)Oc1ccc(N(C(=O)CCC)S(=O)(=O)c2ccccc2)cc1
-2.5	/	CS(=O)(=O)c1cc2ccccc2oc1=O
/	4	N#Cc1c(-c2ccccc2)nc2n(c1=O)CCS2
/	12	CNC(=O)CSc1nncn1-c1ccccc1
1.6	/	N#Cc1cn(C2CCCCC2)c(=O)[nH]c1=O
-1.8	6	O=C(c1ccc[nH]c1=S)n1ccnc1
/	22	CCN=c1sc(C2=c3ccccc3=NC2=O)c(O)n1CC
/	-12	Cc1ccc(CN2N=NC3C(=O)NC(=O)C32)cc1 (stereo not drawn)
/	17	CN(Cc1cnn(-c2ccccc2)c1)C(=O)C1CCN(c2ccc(-c3cccs3)nn2)CC1
-1.1	/	COC(=O)c1cccn1-c1ccc(Cl)cc1
/	3	CCOC(=O)N1CCC(NC(=O)c2sc(-n3cccc3)nc2C)CC1
0.1	/	Cc1ccc(NC(=O)CC(=O)Nc2ccc(C)cc2C)c(C)c1
/	24	COc1ccccc1NC(=O)C(CC(C)C)NC(=O)C1CCCCC1 (stereo not drawn)
1.1	-10	CC(=O)Nc1ccc(S(=O)(=O)Nc2cc(C)c(-n3nc4ccccc4n3)cc2O)cc1
4.4	5	CN1C(=O)/C(=C2/C=CC=CN2C)SC1=S
/	18	Cc1cccc(C)c1NC(=O)CCCSc1nnnn1C
/	-10	O=C(NCCc1ccccc1)c1c(O)nc2ccccn2c1=O

Later entries:
MgrA DNA FP	S aureus helic	SMILES
/	-8	CC1CCCC(NC(=O)c2ccc3c(=O)n4c(nc3c2)CCCCC4)C1C (stereo not drawn)
-0.9	/	Nc1ccc(OCC(F)(F)F)nc1
-1.6	-197	N#Cc1cc(C(=O)c2cc(Br)ccc2O)cn(-c2ccccc2F)c1=O
/	8	O=C(CSCc1ccco1)Nc1ccc(Br)cc1
/	-1	CN(C)S(=O)(=O)c1ccc(N2CCCC2)c(C(=O)OCc2ncc(-c3ccccc3)o2)c1
0.2	/	CCOC(=O)c1c(F)c(F)c(S(C)(=O)=O)c(F)c1F
/	-4	Cc1cc(N)n2c(nc3ccccc32)c1C#N
/	-5	COc1cc(OC)c(NC(=O)CN2C(=O)CSc3ncccc32)cc1Cl
0.9	-17	Nc1nnc(Cc2ccccc2)s1
8.4	/	COc1ccc(-c2ccnc(=S)[nH]2)cc1
/	24	CCN(C(=O)Cn1cnc(S(=O)(=O)N2CCOCC2)c1)c1cccc(C)c1
1.2	/	NC(=O)c1cnn2c(-c3cccc(C(F)(F)F)c3)ccnc12
/	-132	Nc1c(C(=O)c2cccs2)oc2nc(-c3cccs3)cc(-c3ccco3)c12
-0.1	/	CC(C)(C)c1ccc(Oc2c(C(F)(F)F)oc3c(CN4CCOCC4)c(O)ccc3c2=O)cc1
12	10	Cc1cccc2c1[nH]c1nc(=S)[nH]nc12
-0.6	0	COCc1cc(C)nc2sc3c(c12)NC(c1ccccc1)NC3=O (stereo not drawn)
/	0	COc1ccc(NC(=O)CSc2ccccc2)cc1
/	7	O=C(NCc1ccccc1)C1Cc2ccccc2CN1C(=O)c1ccco1 (stereo not drawn)
1.0	6	CC1CN(C(=O)NC23CC4CC(CC(C4)C2)C3)CC(C)O1 (stereo not drawn)
/	-15	O=C(Cn1nc(C(=O)O)c2ccccc2c1=O)NC1CCCc2ccccc21 (stereo not drawn)
0.7	7	CCC(CO)NC(=O)c1cc2cc(Br)cc(Br)c2o1 (stereo not drawn)
1.9	14	COc1ccccc1CNC(=O)/C=C/c1cccc(Br)c1
/	0	CC(C)(C)n1ncc2c(=O)n(Cc3ccccc3)cnc21
2.3	2	CCN=C(NCC)SC1CC(=O)N(c2ccccc2)C1=O (stereo not drawn)
0.8	10	N#CCn1nnc2ccccc21

Entries from the list above that have bromine (six):
MgrA DNA FP	S aureus helic	SMILES
/	-20	Brc1ccc2c(c1)CNc1cccnc1O2
1.6	/	CCN(CC)C(=S)Oc1c(Br)cc(Br)cc1Br
-1.6	-197	N#Cc1cc(C(=O)c2cc(Br)ccc2O)cn(-c2ccccc2F)c1=O
/	8	O=C(CSCc1ccco1)Nc1ccc(Br)cc1
0.7	7	CCC(CO)NC(=O)c1cc2cc(Br)cc(Br)c2o1 (stereo not drawn)
1.9	14	COc1ccccc1CNC(=O)/C=C/c1cccc(Br)c1

More entries.
MgrA DNA FP	S aureus helic	SMILES
0.2	-2	C1CN(c2nc(N3CCOCC3)nc(N3CCOCC3)n2)CCN1
-0.9	/	Cn1c(=O)c2c(nc(SCC(=O)N3CCOCC3)n2C)n(C)c1=O
/	10	O=C(O)c1cccc(S(=O)(=O)NCc2ccc3c(c2)OCO3)c1
0.1	8	OCCN1CN=C(Nc2nc3ccccc3o2)NC1
-0.2	5	CN(CCC#N)C(=O)C1CCC(CNS(=O)(=O)c2ccccc2)CC1 (stereo not drawn)
/	-6	CCN1CCN(C(=O)C2c3ccccc3C(=O)N(CC(C)C)C2c2cccs2)CC1 (stereo not drawn)
-1.1	11	COC(=O)C1=CN(C2CCCC2)C=C(C(=O)OC)C1c1ccc(Cl)cc1
-1.7	18	CCN(CC)c1ncccc1C(=O)N1CCCC1
0.8	-4	CCN(CC)c1ccc2c(COC(C)=O)cc(=O)oc2c1
/	10	Cc1ccc2nc(-c3ccc(NC(=O)CC4SC(=NCc5ccco5)NC4=O)cc3)sc2c1 (stereo not drawn)
/	21	Cc1nn(-c2ccccc2)c2sc(C(=O)NC3CCSC3=O)cc12 (stereo not drawn)
-1.6	12	Cc1cc2ccccc2n1CCCN
/	-19	CCC(=O)Nc1ccc2c(c1)nc1n2CCN(C2CCCCC2)C1
-2.0	6	CCCCCc1ccc(-c2nc(CCCC)no2)cc1
/	9	O=C(c1ccco1)N1CCN(C(=O)c2cc3cc(Br)cc(Br)c3oc2=O)CC1
0.6	-5	Nc1ccc(Cc2nc3cc4ccccc4cc3[nH]2)cc1
/	7	Nc1cc(N)nc(SCC(=O)N(Cc2cccs2)c2ccc3c(c2)OCCO3)n1
/	-15	Cc1cccc(C(=O)NCc2nc3ccccc3[nH]2)c1
-0.1	11	CCC1(CC)C(=O)C(C)(C)C(=O)OC1c1cccs1 (stereo not drawn)
-1.2	/	O=S(=O)(CCS(=O)(=O)c1ccccn1)c1ccc(Cl)cc1
1.7	-2	N#C/C(=C(/O)CN1C(=O)c2ccccc2C1=O)c1nc2ccccc2[nH]1
/	11	COc1ccc2oc(=O)cc(-c3cc4cccc(OC)c4o3)c2c1
-0.2	-8	COc1ccc(CCNC(=O)c2coc3ccccc3c2=O)cc1
1.9	/	O=C(OCc1ccccc1)C(O)C(O)C(=O)OCc1ccccc1 (stereo not drawn)
/	-5	Cc1ccc(S(=O)(=O)N(C)c2ccc(OCC(=O)OCc3nnc(-c4ccccc4)o3)cc2)cc1

(next part)
MgrA DNA FP	S aureus helic	SMILES
-0.2	19	CCCOc1cccc(C(=O)NC(C)c2ccncc2)c1 (stereo not drawn)
/	-17	O/N=C1\COc2ccccc2O1
/	14	O=C(NCC1CCN(CCc2ccc(F)cc2)CC1)Nc1ccc2c(c1)OCO2
-2.8	15	CCc1cc2c(NC3CCCC3)ncnc2s1
0.9	-12	COc1nc(C#N)nc(N2CCCCC2)n1
3.8	0	Cc1ccc(S(=O)(=O)C(C)(C)C)s1
-0.8	1	CCOc1ccc(-c2nnn(CCC#N)n2)cc1OC
/	9	NC(=O)c1oc2ccccc2c1NC(=O)COc1ccccc1
/	17	O=C1N2c3ccccc3CCc3cccc(c32)C1(O)C(F)(F)F (stereo not drawn)
-2.2	-5	O=C(c1cccs1)c1coc2ccc(O)cc12
/	7	CC1=C(C(=O)N2CCOCC2)C(c2c(F)cccc2Cl)C2=C(CCCC2=O)N1 (stereo not drawn)
/	17	CCOC(=O)c1sc(S(C)=O)c2c1CCc1conc1-2 (stereo not drawn)
/	-21	CO/C(N)=N/C(=S)Nc1ccc(F)cc1F
-1.4	15	CCOC(=O)/C(C#N)=C(\C)C1CC1
-0.2	-12	O=C(c1cccc(Cl)c1)N1CCCC1
-1.6	8	Cc1cc(=O)c2c(ccc3ccccc32)[nH]1
-2.2	6	COc1cccc(NC(=S)Nc2ccc(N(C)C)cc2)c1
/	22	CCCn1c2ccccc2c2nnc(SCCN3CCCCC3)nc21
/	-1	CCCCn1c(=N)c(C(N)=O)cc2c(=O)n3ccccc3nc21
-2.5	1	COc1cccc(C(=O)COc2cccc(NC(=O)c3ccco3)c2)c1
/	5	CC(C)C(NC(=O)Cn1c(=O)oc2ccccc21)c1nc2ccccc2[nH]1 (stereo not drawn)
-3.0	1	CC(C)(O)/C(=C\C#N)n1c(=O)oc2ccccc21
-4.3	2	CN1CCCN(Cc2cc(Br)cs2)CC1
/	-1	O=C1C(=C2SCCS2)CC/C1=C\c1ccccc1
/	16	O=C1CC(=O)N2N=C(c3ccccc3)SC2=N1

7 entries already listed, ordered by the value under MgrA DNA FP, falling:
MgrA DNA FP	S aureus helic	SMILES
3.8	0	Cc1ccc(S(=O)(=O)C(C)(C)C)s1
-0.2	-12	O=C(c1cccc(Cl)c1)N1CCCC1
-0.8	1	CCOc1ccc(-c2nnn(CCC#N)n2)cc1OC
-1.4	15	CCOC(=O)/C(C#N)=C(\C)C1CC1
-2.5	1	COc1cccc(C(=O)COc2cccc(NC(=O)c3ccco3)c2)c1
-3.0	1	CC(C)(O)/C(=C\C#N)n1c(=O)oc2ccccc21
-4.3	2	CN1CCCN(Cc2cc(Br)cs2)CC1

Filtered by structure, the entries above with a COOH group (three)
MgrA DNA FP	S aureus helic	SMILES
/	-16	CC(C)C(NC(=O)CC12CC3CC(CC(C3)C1)C2)C(=O)O (stereo not drawn)
/	-15	O=C(Cn1nc(C(=O)O)c2ccccc2c1=O)NC1CCCc2ccccc21 (stereo not drawn)
/	10	O=C(O)c1cccc(S(=O)(=O)NCc2ccc3c(c2)OCO3)c1

Additional records follow.
MgrA DNA FP	S aureus helic	SMILES
1.7	/	Cc1c(C)c(C)c(C(=O)C2CCN(S(=O)(=O)c3cc(C(F)(F)F)cc(C(F)(F)F)c3)CC2)c(C)c1C
/	-18	Cc1nc2cc(NC(=O)c3ccc4c(c3)OCCO4)ccc2s1
0.7	11	CCc1cccc(NC(=S)N(CCOC)C(C)c2cccs2)c1 (stereo not drawn)
-0.2	/	Cn1nc(NC(=O)CC(C)(C)CC(=O)O)c2c(F)cccc21
0.0	20	Oc1ccc(-c2[nH]ncc2-c2cnn(-c3ccccc3)c2)c(O)c1
/	-3	C/C(=N\O)C1/C(=N/O)CC2C1C2(C)C (stereo not drawn)
2.1	-11	CCC1S/C(=N\C(=O)Nc2ccc(Cl)c(Cl)c2)NC1=O (stereo not drawn)
3.2	6	NC(=S)/N=C1\CCCCC1=C1CCCCC1
/	3	O=C(CN1C(=O)C2C3C=CC(C3)C2C1=O)Nc1nncs1 (stereo not drawn)

Source: PubChem BioAssay

Only part of the results is shown; the hit share may differ from the screen's.
